STK33 inh: inhibitors of human STK33 kinase. Q9BYT3. purified STK33, MBP phosphorylation, ADP-Glo luminescence. inhibition, % at 10 µM. actives 0.073% (n = 320,000);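 active = inhibition at or above 25%, using the most active replicate where run in duplicate; inactive = inhibition below 25%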
Target sequence (Q9BYT3 whole entry, looked up): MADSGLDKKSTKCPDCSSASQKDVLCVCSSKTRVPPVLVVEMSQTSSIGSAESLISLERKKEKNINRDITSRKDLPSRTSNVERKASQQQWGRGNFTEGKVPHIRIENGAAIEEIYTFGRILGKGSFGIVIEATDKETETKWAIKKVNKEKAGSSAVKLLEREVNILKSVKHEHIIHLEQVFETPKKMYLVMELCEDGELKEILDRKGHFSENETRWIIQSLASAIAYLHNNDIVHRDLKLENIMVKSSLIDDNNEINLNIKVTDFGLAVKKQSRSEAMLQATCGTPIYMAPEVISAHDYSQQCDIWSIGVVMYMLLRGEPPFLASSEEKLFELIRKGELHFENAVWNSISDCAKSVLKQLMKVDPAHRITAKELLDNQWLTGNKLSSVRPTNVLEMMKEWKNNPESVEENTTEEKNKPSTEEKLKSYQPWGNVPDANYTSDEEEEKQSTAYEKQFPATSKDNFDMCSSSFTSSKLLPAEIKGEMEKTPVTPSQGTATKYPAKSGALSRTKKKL
Starred values were filed as active, the others as inactive. An excerpt, and most or all hits are left out here.

SMILES | STK33 inh
COc1ccc(-n2nc(C(=O)NCc3ccco3)c3c4ccccc4n(C)c3c2=O)cc1Cl | -1.0
O=C1CC(c2ccccc2)n2nc(NC(=O)c3cccs3)nc2N1 (stereo not given) | 0.4
Cc1ccc(N2CCN(S(=O)(=O)c3ccc4oc(=O)ccc4c3)CC2)c(C)c1 | 0.1
CS(=O)(=O)N1N=C(c2cccs2)CC1c1ccco1 (stereo not given) | -1.4
CCN(CC)S(=O)(=O)c1ccc(-c2nnc(SCC(=O)Nc3ccc(OC)c(OC)c3)o2)cc1 | -0.7
COC(=O)C1=C(C)NC(=O)NC1c1cn(-c2ccccc2)nc1-c1cccs1 (stereo not given) | -1.2
CC(C)(C)C(=O)Nc1ccc(C(=O)NNC(=O)c2ccccc2)cc1 | -0.3
O=S(=O)(c1ccc2c(c1)CCCN2)N1CCCC1 | -1.0
O=C1NC(=O)/C(=C\c2ccccc2OCc2ccccc2)S1 | 1.6
O=C(Nc1nc2c(s1)CCCC2)c1cccc(S(=O)(=O)N2CCCc3ccccc32)c1 | -0.9
[O-]/C(=C(\C(=S)Nc1ccc(SC(F)F)cc1)[n+]1ccccc1)c1ccc(Cl)cc1Cl | -1.7
O=C(Cc1ccccc1[N+](=O)[O-])NC1CC1 | -0.7
Cc1onc(-c2ccccc2)c1NC(=O)Nc1ccc(OC(F)F)cc1 | -2.4
COc1cc(OC)c(NC(=O)CN(C)S(=O)(=O)c2ccc(-c3ccc(=O)[nH]n3)s2)cc1Cl | -2.5
Cc1cc(C)nc(SCc2nnc(SCC(=O)N3CCCc4ccccc43)n2C)n1 | -2.0
CC1CC(C)CN(C(=O)COC(=O)c2cc3ccccc3oc2=O)C1 (stereo not given) | 0.7
COC(=O)c1cc(-c2ccc(Cl)cc2Cl)n[nH]1 | 0.3
COc1cccc(C(=O)NNC(=O)C(=O)Nc2cccc(Cl)c2C)c1 | -0.6
COc1ccc(NC(=O)c2ccco2)cc1NC(=O)c1cccc(OC(C)C)c1 | 0.3
CC(=O)Nc1ccccc1/C=C/c1ccc2c(C)cc(C)c(O)c2n1 | -2.2
Cc1ccccc1OCc1nnc(SCC(=O)NCc2ccccc2)n1C | 0.6
N#Cc1c(-c2ccc(Cl)cc2)c(C#N)c(=O)n(N)c1N | -1.1
O=C(NCCOc1ccccc1Cl)c1ncn[nH]1 | -0.6
CCN(CC)CCC(=O)N1c2ccccc2Sc2ccc(Cl)cc21 | -3.3
O=C(c1nnc(-c2ccncc2)o1)c1ccccc1Cl | 1.0
CCCCn1c(C(C)NC(=O)CC)nc2ccccc21 (stereo not given) | -0.6
Fc1ccc(NC(=S)N2CCn3cccc3C2c2cccnc2)cc1 (stereo not given) | -1.7
CCOc1ccc(S(=O)(=O)N2CCN(C(=O)COc3ccc(Br)cc3)CC2)cc1 | -0.2
Cc1nn(Cc2ccccc2)c(Cl)c1C(=O)OCc1nnc(-c2ccccc2)o1 | -2.8
COc1ccc(NC2CCCN(C(=O)CCOc3ccccc3)C2)cc1 (stereo not given) | -0.8
CCS(=O)(=O)c1nc(S(=O)(=O)c2ccc(Cl)cc2)c(N2CCC3(CC2)OCCO3)s1 | -1.4
CC(=O)N(CCC(Cc1ccccc1)c1ccc2c(c1)OCO2)Cc1ccccc1F (stereo not given) | -1.1
OC(C#CCN1CCOCC1)(c1ccccc1)C1CC1 (stereo not given) | -0.2
CCN(CC)C1=CC(=[N+]2CCCC2)CC(C)(C)C1 | -0.8
Cc1cc2ncn(-c3nnnn3-c3ccccc3)c2cc1C | 1.4
O=C1C=C(c2ccc(-c3ccccc3)c(F)c2)C[C@@H](c2ccc3c(c2)OCO3)C1 | -0.5
COc1cccc(NC(=O)C2C3CC4OC(=O)C2C4C3)c1 (stereo not given) | -3.0
COC(=O)Cc1ccc(OC(=O)c2cccc(S(=O)(=O)N3CCN(C)CC3)c2)cc1 | -1.2
CCC1(CC)NC(=O)N(CC(=O)Nc2ccc(C)cc2C)C1=O | 0.4
COc1ccc(CCNC(=O)c2nnn(CC(=O)Nc3ccc(C)cc3C)c2N)cc1OC | -1.2
COc1ccccc1C1OC(c2cccc([N+](=O)[O-])c2)=NN1C(C)=O (stereo not given) | 0.3
CCC(C)(C)N1CC(=O)N(Cc2ccccc2)C(c2ccc(OC)cc2)C1=O (stereo not given) | -1.1
COc1ccc(C2CC(=O)C=C(NCCC(C)C)C2)cc1 (stereo not given) | 0.8
O=C1O[C@H]([C@@H](O)CO)C(O)=C1O | -0.5
Nc1nnc(SCc2ccc(F)cc2)s1 | -1.9
Cc1nc(NC(=S)Nc2ccccc2)sc1C | -2.2
COc1ccc(Cl)cc1N1C(=O)/C(=C\c2sccc2C)N=C1SCC(=O)NC1CC1 | 0.4
CCSc1nnc(NC(=O)C2CC2c2ccccc2)s1 (stereo not given) | -1.9
O=C(Nc1ccc(N2CCOCC2)cc1)C1CC(=O)N(c2ccc(F)cc2)C1 (stereo not given) | 1.0
COc1cc(C(=O)OC(C)C(=O)Nc2ccc3c(c2)OCCO3)cc(OC)c1OC (stereo not given) | -0.4
CNc1ncc(C(=O)C(C)(C)C)s1 | -0.9
Cc1ccc(NS(=O)(=O)c2c(C)[nH]c(C)c2C(=O)N2CCCC2)cc1 | -2.7
COc1ccc(CN2CCC(n3nccc3NC(=O)CCCc3ccccc3)CC2)cc1C | -2.1
CC(C)(C)OC(=O)[C@H]1[C@H](c2ccc([N+](=O)[O-])cc2)C2(C(=O)c3ccccc3C2=O)C2c3ccccc3C=NN21 (stereo not given in full) | -2.8
Cc1ccc(S(=O)(=O)N2CCN(C(=O)c3ccc(N4CCCCC4)c([N+](=O)[O-])c3)CC2)cc1 | -0.9
O=C(NCC1(c2ccccc2)CCCC1)c1ccc(Br)o1 | -0.3
O=C(COC(=O)c1ccc(S(=O)(=O)Nc2ccccc2)cc1)NCCC1=CCCCC1 | -0.2
COc1ccccc1N1CCN(C(=O)CCc2nnc3ccc(N4CCCC4)nn23)CC1 | -0.5
O=C(O)COc1ccccc1/C=N/NC(=O)CN1CCN(S(=O)(=O)c2ccc(Br)cc2)CC1 | 1.1
COc1ccc(-c2nc(N)n(S(=O)(=O)c3ccc(C)cc3)n2)cc1 | -2.9

Sorted by length of the SMILES (ascending): some entries from above
SMILES | STK33 inh
CCSc1nnc(NC(=O)C2CC2c2ccccc2)s1 (stereo not given) | -1.9
COc1ccc(CN2CCC(n3nccc3NC(=O)CCCc3ccccc3)CC2)cc1C | -2.1
COc1cc(C(=O)OC(C)C(=O)Nc2ccc3c(c2)OCCO3)cc(OC)c1OC (stereo not given) | -0.4
COc1ccc(Cl)cc1N1C(=O)/C(=C\c2sccc2C)N=C1SCC(=O)NC1CC1 | 0.4

Continuation.
SMILES | STK33 inh
COCC(C)n1c(SCC(=O)NC(=O)NCc2ccccc2)nc2ccccc2c1=O (stereo not given) | 1.9
Cc1cc(OCC(=O)N2CCC(C(N)=O)CC2)c2c(C)cc(=O)oc2c1 | -0.9
CSc1nncc(/C(C)=N\Nc2ccccc2)n1 | 0.0
CSc1nc2ccc(S(=O)(=O)N3CCc4ccccc43)cc2s1 | 0.7
Cc1noc(C)c1COC(=O)c1ccc(S(=O)(=O)NCc2ccco2)cc1 | -0.4
COc1ccc(NC(=O)CN(C)C(=O)c2cccc(S(=O)(=O)N3CCN(c4ccccc4)CC3)c2)cc1 | -1.8
FC(F)(F)c1cc(-c2ccccc2)nc(-n2cncn2)n1 | -4.5
CCc1ccc(-c2cc(C)no2)cc1S(=O)(=O)N1CCN(c2cc(C)ccc2C)CC1 | 1.4
CCNc1nc2nonc2nc1NCC | -1.6
COc1ccc(-c2nn(-c3ccccc3)cc2CNC(C)Cn2cncn2)c(F)c1 (stereo not given) | 0.0
CCOC(=O)c1nn(-c2ccccc2)c(-c2ccccc2)c1C(=O)c1ccccc1 | -0.9
NC(=S)NC(=O)c1ccccc1 | -0.5
Cc1onc(-c2c(F)cccc2Cl)c1C(=O)Nc1cccc(Cn2cccn2)c1 | -0.1
CCOC(=O)Cc1cc(=O)n2[nH]c(C)c(-c3ccccc3OC)c2n1 | 0.0
C1CCc2nnc(-c3nnc4n3CCCCC4)n2CC1 | -0.3
CC(=O)c1cc2c(cc1NC(=O)CSc1nc3ccc(C)cc3[nH]1)OCO2 | 0.6
Cn1nc(-c2ccccc2)c(C(=O)NCC(=O)O)c1Cl | -0.1
Cc1ccc(CNC(=O)CCNC(=O)c2ccc([N+](=O)[O-])cc2)cc1 | -0.5
COc1ccc(NC(=O)NC(c2ccccc2)c2ccccc2)c(OC)c1 | 0.5
CCC(C)NC(=O)CN(c1cc(C)cc(C)c1)S(=O)(=O)c1c(C)[nH]c(=O)[nH]c1=O (stereo not given) | -2.1
CCC(=O)N1CCN(c2ccc(NC(=O)c3ccc(Br)o3)cc2)CC1 | 3.7
O=C(O)C1=C[C@H](c2csc3ccccc23)C[C@H](OCCCCO)O1 | -1.0
COc1ccc(OC)c(CNC(=O)CCCn2ccc3cc(S(=O)(=O)N4CCCC4)ccc32)c1 | -0.7
Cc1nnc(SCC(=O)N(Cc2ccccc2)C(C)(C)C)[nH]c1=O | -0.7
COc1ccc(CN2C(=O)CCC2(C)C(=O)NC2CCCCC2)c(OC)c1 (stereo not given) | -0.4
COc1ccccc1/C=C/CN1CCN(Cc2ccc(F)cc2)C(CCO)C1 (stereo not given) | -1.6
Cc1nn(S(=O)(=O)c2ccc(C(C)C)cc2)c(C)c1S(=O)(=O)N1CCOCC1 | -1.5
CCN1C(=O)N(c2ccc(Cl)cc2)C(C)=CC1(C)C | 2.1
CCCNC(=O)c1c(CSc2ccccc2)noc1C(=O)NCc1ccccc1 | -1.1
CC(=O)Nc1ccc(C(=O)OCC(=O)NCc2ccc3c(c2)OCO3)cc1 | -1.4

2 consecutive compounds out of the list so far, for reference:
SMILES | STK33 inh
COc1ccc(-n2nc(C(=O)NCc3ccco3)c3c4ccccc4n(C)c3c2=O)cc1Cl | -1.0
O=C1CC(c2ccccc2)n2nc(NC(=O)c3cccs3)nc2N1 (stereo not given) | 0.4

Some of the entries so far, field by field:
> Cc1ccc(CNC(=O)CCNC(=O)c2ccc([N+](=O)[O-])cc2)cc1
  STK33 inh: -0.5

> COc1ccc(NC(=O)NC(c2ccccc2)c2ccccc2)c(OC)c1
  STK33 inh: 0.5

> CCC(C)NC(=O)CN(c1cc(C)cc(C)c1)S(=O)(=O)c1c(C)[nH]c(=O)[nH]c1=O (stereo not given)
  STK33 inh: -2.1

> CCC(=O)N1CCN(c2ccc(NC(=O)c3ccc(Br)o3)cc2)CC1
  STK33 inh: 3.7

The list continues:
SMILES | STK33 inh
CCOC(=O)CNc1c(-c2ccc(O)cc2)nc2ccc(Cl)cn12 | 0.8
O=C(COC(=O)C1CC2C=CC1C2)Nc1ccc2c(c1)OC(F)(F)O2 (stereo not given) | -0.5
Cc1ccc(-c2nn(-c3ccccc3)cc2/C=C2\SC(=S)N(CC(=O)O)C2=O)cc1 | 0.7
O=C(Nc1ccc2oc(-c3ccncc3)nc2c1)c1ccccc1F | -0.9
CC(C)OC(=O)Nc1ccc(Oc2c(F)c(F)c(F)c(F)c2F)cc1 | -0.9
Cc1[nH]c2ccccc2c1C(=O)COC(=O)c1c(-c2c(F)cccc2Cl)noc1C | -0.2
Cn1nc(C(=O)OCC(=O)NCc2ccc(Cl)cc2)c2ccccc2c1=O | 0.2
CC(C(=O)N1CCc2ccccc21)N(C)CC(=O)Nc1cccc(F)c1 (stereo not given) | 1.5
O=C(NCc1cccnc1)c1ccc(CS(=O)(=O)Cc2ccc(Cl)cc2)o1 | -1.1
CCOC(=O)C1(CCc2ccccc2)CCN(Cc2ccc(C(=O)OC)cc2)CC1 | -0.2
CCCOc1ccccc1C(=O)N(Cc1cccc(Br)c1)C1CCS(=O)(=O)C1 (stereo not given) | -1.5
COc1ccc(S(=O)(=O)n2nc(OC(=O)c3cccs3)cc2NC(=O)c2cccs2)cc1 | 0.9
COc1ccc(C2c3[nH]c4ccccc4c3CCN2CCCn2cccn2)c(C)c1C (stereo not given) | -0.1
O=C(CCl)Nc1cc(-c2ccccc2)nn1-c1ccccc1 | 0.5
COCCn1c(C)cc(C(=O)CSc2nc(C)nc3sc4c(c23)CCC4)c1C | 0.7

2 of the compounds above, as a markdown table:
| molecule | STK33 inh |
| --- | --- |
| Nc1nnc(SCc2ccc(F)cc2)s1 | -1.9 |
| O=C(COC(=O)C1CC2C=CC1C2)Nc1ccc2c(c1)OC(F)(F)O2 (stereo not given) | -0.5 |

Later entries.
SMILES | STK33 inh
COc1ccnc(N=CNOCc2ccc(F)cc2Cl)c1C#N | -3.0
O=C(O)/C=C/C(=O)NCc1csc2ccccc12 | -1.4
Cc1nnc(NC(=O)Cn2c(=O)sc3ccccc32)s1 | 0.1
O=C(CSc1nnc(C2CCCCC2)n1-c1ccccc1)NCc1ccco1 | 0.9
CCCCNC(=O)C1CC(=O)N(c2ccc(OC)cc2)C1c1ccc(OC)cc1 (stereo not given) | -0.6
O=C(OCC(=O)N1CCCC1)c1ccc(O)cc1 | -0.1
COCCN1CCN(C(=O)c2cc(COc3ccc(Cl)cc3OC)on2)CC1 | -1.1
CCOc1cc(/C=N\NC(N)=O)cc(Br)c1OC(C)C | -0.1
Cc1ccc(CCNC(=O)C2CCC(=O)N2C2CCCC2)cc1 (stereo not given) | 1.6
CN(C)S(=O)(=O)Oc1ccsc1C(=O)Nc1ccc(Cl)cc1 | -0.9
CCCNS(=O)(=O)c1ccc(OCC(=O)NCCCOC)cc1 | -0.1
O=C(Nc1ccc(Cl)c(S(=O)(=O)N2CCOCC2)c1)c1ccc2c(c1)OCO2 | 0.0
CC(C)(C)c1csc(NNC(=O)c2ccc(Br)cc2)n1 | -1.0
O=C(CSCc1ccccc1)N1CCN(c2cccc(C(F)(F)F)c2)CC1 | 1.1
COc1cc(/C=C/C(=O)O)cc(S(=O)(=O)NCC2CCCO2)c1OC (stereo not given) | 1.2
CCC1CCCCN1c1nc2c(C=O)c(C)nn2c2ccccc12 (stereo not given) | -0.2
Cc1ccc(N/N=C/C=C/c2ccco2)cc1 | -1.8
O=C(N1CCOCC1)N1CCN(S(=O)(=O)c2cccc([N+](=O)[O-])c2)CC1 | 0.8
